# From PubChem BioAssay
# TAR Tat displ – HIV-1 TAR-Tat binding disruption; HIV-1 TAR RNA, Tat peptide displacement FRET; stronger effect = higher value; z-score (no concentration beside the values); 0.6% of 100,000 active; AID 1259389;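 further: score is relative to mean and SD of negative controls; some compounds called inactive have numbers as strong as hits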
# CDC25B-CDK2 inh – human CDC25B-CDK2/CyclinA binding inhibition; z-score (test concentration not listed); P30305+P24941; HTRF CDC25B-CDK2/CyclinA binding, anti-His/anti-Flag; stronger effect = higher value; 0.72% of 94,000 active; AID 1259370;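 further: score is relative to mean and SD of negative controls; strong numbers were not always called active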
# Numbers without * were called inactive; · = no result given.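 How the source made its calls: active means z-score from 3 up in half or more of its runs; inactive means the rest.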
SMILES | TAR Tat displ | CDC25B-CDK2 inh
COCCCNS(=O)(=O)c1ccc2c(c1)C(C)(C)C(=O)N2C | 0.74 | ·
Nc1ccccc1SC(CC(=O)c1ccccc1)c1ccc2c(c1)OCO2 (configuration not stated) | · | -1.8
CCN(CC)CCNc1sc(S(C)(=O)=O)nc1S(=O)(=O)c1ccc(Cl)cc1 | -0.41 | -0.72
Cn1c(=O)c2c(nc(N3CCOCC3)n2Cc2cccc(C(F)(F)F)c2)n(C)c1=O | · | 0.8
Cc1nnc(NCCc2ccccc2)c2c1nnn2Cc1ccccc1Cl | 1.9 | -2.1
Cn1ncc2c(Nc3cccc(Cl)c3)nc(NCc3ccco3)nc21 | 2.1 | ·
CN1CCN(C(=O)c2cc3n(n2)C(C(F)(F)F)CC(c2ccccc2)N3)CC1 (configuration not stated) | -0.19 | -1.9
Nc1nc(OCc2ccccc2)c2[nH]cnc2n1 | · | -1.8
CCOC(=O)c1sc(=S)n(-c2cc(Cl)ccc2OC)c1N | 1.5 | ·
CCOCCCNc1nc(N2CCN(C)CC2)c2cnn(C)c2n1 | 0.87 | ·
Cc1nc2c(c(C)c1CCC(=O)NCCN1CCCC1)c(=O)n(C)c(=O)n2C | -0.16 | -1.4
CCOc1ccc(CSc2ncn[nH]2)cc1 | -0.25 | -1.9
S=c1nn[nH]n1-c1ccc(Cl)cc1 | · | 0.64
Cc1ccc(C(=O)c2cn(Cc3ccc(F)cc3)c3cc4c(cc3c2=O)OCCO4)cc1 | -3.2 | -0.53
O=C(Nc1ccccc1)c1cnn2c1NC(c1ccccc1)=CC2c1ccccc1 (configuration not stated) | 1.2 | ·
N#CCc1ccc(Oc2c(Cl)cncc2Cl)cc1 | · | 0.37
O=C(Nc1ccc2nc(SCc3cc(=O)n4ccsc4n3)sc2c1)c1cccs1 | -0.64 | ·
Brc1[nH]nc2ncnc(N3CCOCC3)c12 | 1.1 | 2.6
COc1ccc(S(=O)(=O)NCc2cn3ccccc3n2)cc1F | 1.2 | -0.29
CC1=CC(C)(C)N(C(=O)CN2C(=O)C3CCCCC3C2=O)c2ccccc21 (configuration not stated) | 1.2 | 0.03
CC1c2cccn2CCN1C(=O)Nc1ccccc1Br (configuration not stated) | -4.1 | ·
CCCNS(=O)(=O)c1ccc2c(c1)NC(=O)C(C)C(=O)N2 (configuration not stated) | · | -1
O=C(Cc1cccs1)Nc1c(C(=O)N2CCN(c3ccccn3)CC2)oc2ccccc12 | -6.6 | ·
CCOC(=O)N1CCN(c2ccc(Cl)nn2)CC1 | 0.38 | -1.1
Cc1ccc(C2C=C(c3cccnc3)Nc3nc4ccccc4n32)cc1 (configuration not stated) | · | -2.2
CC(C)(C)c1ccc(OCC(N)=S)cc1 | · | 0.01
Cc1occc1-c1nnc(SC(C)C(=O)Nc2ccc(F)cc2)o1 (configuration not stated) | 0.86 | -0.72
CCc1ccc(S(=O)(=O)c2nnn(-c3ccc(C)cc3)c2N)cc1 | -2.3 | -1.4
COc1ccc(C2c3c(-c4ccc(Cl)cc4)n[nH]c(=O)c3Nc3nnnn32)cc1 (configuration not stated) | 1.2 | 1.7
O=C(c1cc2c(s1)-c1ccccc1OC2)N1CCC(N2CCCCC2)CC1 | 0.31 | 0.38
Cc1nc2ccccc2c(=O)n1C1CCN(S(=O)(=O)c2ccc(Cl)cc2)CC1 | 1.7 | ·
COC(=O)C1CCN([C@H]2CS(=O)(=O)C[C@@H]2S(=O)(=O)c2cccs2)CC1 | 1.2 | -0.31
CCOC(=O)c1nn(-c2cccc(Cl)c2)cc(Sc2ccc(Cl)cc2)c1=O | · | -0.55
Cc1nnsc1C(=O)Nc1ncc([N+](=O)[O-])s1 | 0.53 | -1.2
CCCN(CCC)C(=O)CCS(=O)(=O)c1cc2c(cc1Cl)NC(=O)CO2 | 0.83 | ·
CN1CCN(c2ncc3c(n2)CCN(Cc2ccc(F)cc2)C3)CC1 | 0.41 | ·
CN(CCO)CCNc1cc(N(C)C)c2noc3c2c1C(=O)c1ccccc1-3 | -1.9 | -2.2
O=C(N1CCCC1)C1(c2cccs2)CCOCC1 | 1.4 | ·
Cc1cc(Br)ccc1NC(=O)OC(C)(C)C | · | -2.8
Cc1ccc(Cn2c(=O)c3cccnc3n(Cc3cc(=O)n4cc(Cl)ccc4n3)c2=O)cc1 | -0.52 | -2.3
CCC(C)NC(=O)c1cnn2c1NC(c1cccs1)CC2C(F)(F)F (configuration not stated) | 1.1 | -2.1
O=C(O)CCCc1nnc2n3nc(-c4ccccc4)nc3c3ccccc3n12 | 0.96 | -1.4
O=C(CN1C(=O)COc2ccc(C(=O)N3CCCC3)cc21)N1CCN(c2ncccn2)CC1 | 1.2 | ·
CCCCOC(=O)C1=C(C)NC(=O)NC1c1ccc(Cl)cc1 (configuration not stated) | · | -0.92
CSc1ccc(CN2C(=O)CCC2(C)C(=O)N2CCCC2)cc1 (configuration not stated) | 1.6 | -1.6
O=C(c1cnn2c(C(F)F)cc(-c3ccccc3)nc12)N1CCSCC1 | 1.3 | 1
Cc1cccc(C(c2c[nH]c3ccccc23)c2c[nH]c3ccccc23)c1O | 0.13 | -0.86
O=S(=O)(Cc1ccccc1)N1CCCC1c1cccs1 (configuration not stated) | -0.65 | -1
Cc1c2c(n3c(nc4ccccc43)c1C#N)N(Cc1ccccn1)CC2 | -7 | -0.74
CC(C)C(=O)OC1=CN(C(C)C)S(=O)(=O)c2ccccc21 | 0.76 | -0.89
Cc1ccc2[nH]c3nc4ccccc4nc3c2c1 | · | -0.62
O=C(Nc1nnc(CCS(=O)(=O)c2ccc(Cl)cc2)s1)c1ccc(Br)cc1 | -2 | -2.6
O=C1COc2ccc(S(=O)(=O)N3CCN(c4ccccc4F)CC3)cc2N1 | 1.9 | ·
CCN1CCN(c2cc3c(cc2F)c(=O)c(S(=O)(=O)c2cc(C)cc(C)c2)cn3C)CC1 | 0.5 | ·
Oc1c(Cl)cc(Cl)cc1C=Nc1cccnc1 | · | -0.54
O=C(NC1CCCC1)C1c2c(ccc3ccccc23)OCC(=O)N1c1ccccc1Br (configuration not stated) | 2.5 | ·
O=C(c1cc(S(=O)(=O)N2CCCCC2)c[nH]1)N1CCCC1 | 0.71 | ·
COc1ccc(C2=NC(c3ccccc3)=Nc3ccc(F)cc3N2)cc1OC | 1.1 | -1.6
Cc1ccccc1-c1noc2ncnc(N3CCC(C)CC3)c12 | 0.21 | ·
COc1ccccc1CNc1nc2c(S(=O)(=O)c3cccc(Cl)c3)nnn2c2ccsc12 | -1.1 | ·

# Next part
SMILES | TAR Tat displ | CDC25B-CDK2 inh
O=C1CN(Cc2ccccc2F)S(=O)(=O)c2ccccc2N1Cc1ccc(F)cc1 | 2.7 | ·
CCc1c(C)nc2nc(-c3ccccc3F)[nH]n2c1=O | 0.31 | -0.61
Cc1nc(-c2ccc(C)c(S(=O)(=O)Nc3ccc(C)c(Cl)c3)c2)cs1 | 2.2 | ·
CCN(CC)c1ccc(NS(=O)(=O)c2ccc3c(c2)CC(C)N3C(=O)C2CC2)c(C)c1 (configuration not stated) | 0.55 | ·
Cc1c(C(=O)NCC(c2ccco2)N2CCCC2)oc2ccc(Br)cc12 (configuration not stated) | -0.08 | -0.69
COc1ccccc1C1CCN(c2ccc(CO)cc2[N+](=O)[O-])CC1 | · | -0.53
Fc1cccc(-c2nnn3c2nc(NC2CCCC2)c2ccccc23)c1 | 0.96 | 1
COc1ccc(-c2c3c(=O)n(C)c(=O)n(C)c3c3n2CCOC3c2ccc(Br)cc2)cc1 (configuration not stated) | 2.3 | -1.8
CCC(=O)N1CC2(CC)CN(C(=O)CC)CC(CC)(C1)C2=O | 1.2 | -0.62
Cc1ccc(OCCSc2nc3ccccc3o2)cc1 | -0.36 | -1.2
Cc1ccc(S(=O)(=O)N2C=Cc3ccccc3C2c2c[nH]c3ccccc23)c(C)c1 (configuration not stated) | · | -8
CCOc1ccc(N2C(=O)c3cccnc3C2Nc2ccc(F)cc2F)cc1 (configuration not stated) | -0.21 | -1.2
CC1CCCCC1NC(=O)C1CCN(S(=O)(=O)c2ccc3c(c2)CC(C)N3C(=O)C2CC2)CC1 (configuration not stated) | 0.62 | ·
CC1CCN(S(=O)(=O)c2ccc3c(c2)N(CC(=O)N2CC(C)CC(C)C2)C(=O)CO3)CC1 (configuration not stated) | -0.35 | -0.96
CC(C)CCNc1ncnc2c1cnn2-c1ccc(F)cc1 | 0.78 | ·
Cc1ccc(/C(=C/C=C(C#N)C#N)N2CCN(c3ccc(Cl)c(Cl)c3)CC2)cc1 | · | -4.4
COCCNc1nc2cc(OC)c(OC)cc2c2nc(-c3cccnc3)nn12 | 1 | -1.5
O=c1[nH]nc(-c2ccccc2)nc1Cc1ccc(Cl)cc1 | 1.5 | ·
Cc1cc(=O)oc2cc(OC(=O)CCN3C(=O)c4ccccc4C3=O)ccc12 | · | -2.7
COc1cccc(C2Nc3ccccc3-c3cc(C)nn32)c1O (configuration not stated) | 0.69 | -2.1
CN(C)CCNC(=O)c1nn(C)c2c1CCc1ccccc1-2 | 0.23 | ·
CCCOCCOC(=O)C1=C(C)NC2=C(C(=O)CCC2)C1c1cccnc1 (configuration not stated) | 1.4 | ·
CC(=O)N1c2ccc(S(=O)(=O)N3CCOCC3)cc2CC1C(=O)NCCc1c(C)noc1C (configuration not stated) | 2.2 | ·
COc1cc(NS(=O)(=O)c2ccc3c(c2)NC(=O)C(C)C(=O)N3)cc(OC)c1 (configuration not stated) | 0.95 | -0.07
Cc1nn(-c2ccccc2)nc1C(=O)N(C)CCc1ccccn1 | · | -0.99
CCOC(=O)C1CC2CN(S(=O)(=O)c3ccc(C)cc3)CC(C1)C2=O (configuration not stated) | · | -0.5
Cc1nnc(C)c2c(C)n(C(C)c3ccccc3)c(C)c12 (configuration not stated) | -7.6 | -0.69
C=C(C)Cn1c(C(O)CCC)nc2ccccc21 (configuration not stated) | -0.01 | 0.56
O=C(c1ccc2nc(N3CCOCC3)sc2c1)N1CCN(Cc2ccc3c(c2)OCO3)CC1 | 1.5 | 0.27
O=C(O)CSc1ncnc2sc3c(c12)CCCC3 | 3.5 | -1.4
COc1ccc(O)c(C2=NN3C(C2)c2cccc(OC)c2OC3c2ccsc2)c1 (configuration not stated) | -0.68 | 0.25
Cc1ccc(-c2nnc3sc(NC(=O)C(C)C)nn23)cc1 | 0.61 | 1.4
Cn1ncc2c(NCc3ccc(Cl)cc3)nc(N3CCN(Cc4ccccc4)CC3)nc21 | 2.3 | ·
CN(C)c1ncc(C(=O)NCCc2cccs2)cn1 | 1.6 | ·
COCCn1nnc2c(sc3nc(C)cc(C)c32)c1=O | 1.5 | -0.66
O=C(NCc1ccccc1Br)c1cnc2sc(N3CCOCC3)nn2c1=O | 0.72 | ·
Cc1csc2nc(COC(=O)c3cccc(Cl)c3)cc(=O)n12 | 0.75 | ·
CC1CCCC(C)N1C(=O)Cn1c(=O)oc2cc(S(=O)(=O)N3CCCCC3)ccc21 (configuration not stated) | · | -3.3
Cc1cc(C)n(-c2nnc(C)c(=O)[nH]2)n1 | -0.54 | 0.15
CCOC(=O)N1CCC(NS(=O)(=O)c2ccccc2)CC1 | · | -0.54
COc1nc2ccc(C)cc2cc1-c1noc(-c2cccnc2)n1 | 3.6* | -13
CC1CCC(C(=O)NC(Cc2c[nH]c3ccccc23)C(=O)NC2CCCCC2C)CC1 (configuration not stated) | · | -0.48
CCN1C(=O)c2cccc3c(S(=O)(=O)NC(CCSC)C(=O)O)ccc1c23 (configuration not stated) | 2.6 | -1.4
O=C(Cn1cnc(S(=O)(=O)N2CCCC2)c1)NC1CCCc2ccccc21 (configuration not stated) | 0.2 | ·
Cc1cc(N2CCOCC2)nc2ccc(N)cc12 | -6.3 | 5.2
Cc1ccc(S(=O)(=O)Nc2c(C)cc(O)c(S(=O)(=O)c3ccc(C)cc3)c2C)cc1 | · | -0.42
O=C1CCCc2cc(S(=O)(=O)N3CCN(c4ccccc4)CC3)ccc2N1 | 0.72 | ·
O=C(c1cccs1)N1CCSC1=S | 2 | -1.4
Cc1cccc(Cn2cccc2CNC(=O)NCC2CCCO2)c1 (configuration not stated) | -1 | ·
COc1ccc(-c2noc(-c3ccccc3OC)n2)cc1 | · | -1.6
CC(=O)N1c2ccc(S(=O)(=O)N3CCCC3)cc2CC1C(=O)NCCc1cccs1 (configuration not stated) | -0.36 | ·
CC=C1C2C=C(C)C[C@]1(N)c1ccc(=O)[nH]c1C2 | 2.3 | ·
CC(C)n1c(=O)oc2cc(S(=O)(=O)N3CCC(CC(=O)Nc4nccs4)CC3)ccc21 | 0.66 | ·
CCOC(=O)C1CCN(C(=O)CCCn2nc(CC)n3c(cc4occc43)c2=O)CC1 | 0.77 | -1.6

# Looked up above.
# `Cc1cc(N2CCOCC2)nc2ccc(N)cc12` in TAR Tat displ = -6.3
# `COc1ccc(-c2noc(-c3ccccc3OC)n2)cc1` in CDC25B-CDK2 inh = -1.6
# `CC(C)n1c(=O)oc2cc(S(=O)(=O)N3CCC(CC(=O)Nc4nccs4)CC3)ccc21` in TAR Tat displ = 0.66
# `O=C(NCc1ccccc1Br)c1cnc2sc(N3CCOCC3)nn2c1=O` in TAR Tat displ = 0.72
# `O=C1CCCc2cc(S(=O)(=O)N3CCN(c4ccccc4)CC3)ccc2N1` in TAR Tat displ = 0.72
# `CC1CCC(C(=O)NC(Cc2c[nH]c3ccccc23)C(=O)NC2CCCCC2C)CC1` (configuration not stated) in CDC25B-CDK2 inh = -0.48

# One compound at a time, from the list above. Screens in order: TAR Tat displ	CDC25B-CDK2 inh
# Record of CC1CCCC(C)N1C(=O)Cn1c(=O)oc2cc(S(=O)(=O)N3CCCCC3)ccc21 (configuration not stated) : ·	-3.3
# Record of Cc1cccc(Cn2cccc2CNC(=O)NCC2CCCO2)c1 (configuration not stated) : -1	·
# Record of Cc1csc2nc(COC(=O)c3cccc(Cl)c3)cc(=O)n12 : 0.75	·
# Record of COc1ccc(-c2noc(-c3ccccc3OC)n2)cc1 : ·	-1.6
# Record of Cc1ccc(S(=O)(=O)Nc2c(C)cc(O)c(S(=O)(=O)c3ccc(C)cc3)c2C)cc1 : ·	-0.42
